# Screening results deposited in PubChem by National Center for Advancing Translational Sciences (NCATS).
# Sfp PPTase inh: inhibitors of Bacillus subtilis Sfp phosphopantetheinyl transferase | Biochemical Sfp PPTase activity, qHTS | AID 1490 | 310,000 tested, 3.5% active | Q9F4F7 | Potency, µM, for the others: max response, negative = inhibition, actives largely listed as inhibitors; active means well fitted inhibition curve with a large enough effect; inconclusive means small, poorly fitted or top-dose-only effect, or another doubt; inactive means no such curve, though single readings can be large or run the other way;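 further: the enzyme is Sfp with the accession as filed and its product quenches rhodamine fluorescence; potency means the concentration at half of the fitted maximal effect; 0% = enzyme reaction without inhibitor and -100% = no enzyme wells; top concentration of the series not given in the record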
#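 Reaction rates are the 30-min fluorescence difference (ex 525, em 598 nm) in wells containing 15 nM Sfp, 5 uM rhodamine-CoA and 12.5 uM BHQ-2-YbbR at pH 7.6 with 10 mM MgCl2.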
# D2 ag: agonists of human D2 dopamine receptor (beta-arrestin) | DiscoveRx PathHunter D2 beta-arrestin, luminescence, 90 min; 100% = 57 uM dopamine signal | activation, % (test concentration not listed) | 360,000 tested, 0.084% active | AID 624465; in the data active = activation above about 40%; inconclusive = about 15% to 40%; inactive = below about 15%; further: compound concentration not given in the record; the text of the record calls up to 30% inactive
#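 Agonist mode: compounds alone added to overnight-plated D2 PathHunter cells for 90 min at 37 C, with 57 uM final dopamine (EC100) defining full response. Beta-arrestin recruitment detected by chemiluminescent reagent, read after 1 h at ambient temperature.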
# PINK1 modulator: PINK1 expression modulation | Potency, µM (top dose mostly 76.6 µM), for inactives: top-dose activation (PINK1 increase), actives largely listed as activators | AID 624263 | 410,000 tested, 0.2% active | PINK1 immunofluorescence, high-content cytometry, 24 h; active = well fitted activation curve with a large enough effect; inconclusive = small, poorly fitted or top-dose-only effect; inactive = flat fitted curve, though single readings scatter; cell line not stated here;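 further: potency means the concentration at half of the fitted maximal effect; % of control where 0% means no effect; nearly all actives have a fitted effect of over 65% in size; a mitochondrial uncoupler was the plate control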
#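 Fluorescence from anti-PINK1 antibody, together with nuclear and cell stains, was scanned on a laser-scanning cytometer. Before staining, stable-line cells were incubated 24 hours with compounds at 5 concentrations; primary antibody 12 h at 10 degrees C.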
# CtBP-E1A inh: blocks the CtBP interaction with E1A. AlphaScreen GST-E1A/His-CtBP binding, 1536-well; stronger effect = lower value; control for the full effect not named in the record. activity change, % (test concentration not listed). 340,000 tested, 0.49% active; in the data active means activity change below about -65%; inconclusive means about -30% to -65%; inactive means above about -30%; further: on the % scale 0 is the no-effect control and ±100 the full control effect; compound concentration not given in the record
#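 Steps: dispense buffer (Tris pH 8.0, NaCl 300 mM, TCEP 1 mM, BSA, Tween 20); add 5X protein mix (GST-E1A, His-CtBP, 125 nM each); pin 23 nL compound; 2 h at 37 °C, dark; add 5X beads (50 ug/mL); 1 h; read.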
# TRPV1 potentiator: potentiators of human vanilloid receptor 1 (TRPV1); TRPV1-expressing cells, Fluo-8 calcium influx, capsaicin EC20 potentiation; host cell line not named in the record; control for the full effect not named in the record; potentiation, % at 8.33 µM; 320,000 tested, 0.02% active; active means potentiation above 80%; inconclusive means 30% to 80%; inactive means below 30%; further: 0% is about no effect
#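 Fluo-8 calcium influx in TRPV1-expressing cells, kinetic read (ex 480/em 520 nm). Compound added and read 3 min for agonist activity, followed by capsaicin at EC20 final and 2 min further read for enhancement.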
# Six1-Eya2 inh: Six1/Eya2 interaction inhibition | Q15475+O00167 | AlphaScreen GST-Six1/His-Eya2 binding, biochemical; stronger effect = lower value; control for the full effect not named in the record | activity change, % (test concentration not listed) | 360,000 tested, 0.56% active; in the data active = activity change below about -65%; inconclusive = about -30% to -65%; inactive = above about -30%; further: on the % scale 0 is the no-effect control and ±100 the full control effect; compound concentration not given in the record
# Target sequence (O00167 whole entry, looked up): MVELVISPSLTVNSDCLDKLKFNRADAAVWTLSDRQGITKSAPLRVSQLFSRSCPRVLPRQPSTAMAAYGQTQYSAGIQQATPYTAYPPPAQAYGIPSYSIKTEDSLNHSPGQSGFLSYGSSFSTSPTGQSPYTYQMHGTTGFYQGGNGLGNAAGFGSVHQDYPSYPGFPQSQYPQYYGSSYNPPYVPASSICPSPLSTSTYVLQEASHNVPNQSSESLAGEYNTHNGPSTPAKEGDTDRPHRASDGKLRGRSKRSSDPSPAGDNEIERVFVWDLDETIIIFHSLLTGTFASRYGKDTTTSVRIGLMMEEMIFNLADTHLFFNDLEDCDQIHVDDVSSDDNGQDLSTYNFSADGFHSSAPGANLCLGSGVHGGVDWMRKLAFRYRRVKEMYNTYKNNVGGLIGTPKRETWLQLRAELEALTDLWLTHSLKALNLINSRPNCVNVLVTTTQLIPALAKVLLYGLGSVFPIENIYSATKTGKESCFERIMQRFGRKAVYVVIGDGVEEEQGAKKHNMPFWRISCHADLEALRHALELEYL
# Target sequence (Q15475 whole entry, looked up): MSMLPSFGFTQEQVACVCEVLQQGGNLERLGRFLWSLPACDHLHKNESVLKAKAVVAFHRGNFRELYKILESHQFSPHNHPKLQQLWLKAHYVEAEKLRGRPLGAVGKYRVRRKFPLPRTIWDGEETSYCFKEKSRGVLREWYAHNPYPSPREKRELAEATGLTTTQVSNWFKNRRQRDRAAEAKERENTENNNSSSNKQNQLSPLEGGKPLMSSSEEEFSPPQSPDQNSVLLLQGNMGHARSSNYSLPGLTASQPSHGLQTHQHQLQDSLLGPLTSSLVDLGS
#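 AlphaScreen luminescence read after one hour at 37 °C in darkness. Pin-transferred compounds met GST-Six1 and His-Eya2 protein (5X stock 250 nM/500 nM) plus glutathione donor and Ni-chelate acceptor beads (5X, 50 ug/mL).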
# D2 potentiator: positive allosteric modulators of human D2 dopamine receptor | 360,000 tested, 0.23% active | DiscoveRx D2 beta-arrestin cells, luminescence, 90 min; 100% = 57 uM dopamine signal | P14416 | potentiation, % (concentration not given with the values); active = potentiation of 50% or more; inconclusive = 30% to 50%; inactive = 30% or less;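 further: compound concentration not given in the record; tested on top of an EC20 dose of dopamine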
#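 PathHunter D2 cells, attached overnight at 37 deg C, received compound in DMSO plus dopamine at EC20 (50 nM final) for 90 min at 37 deg C. Beta-arrestin recruitment was read as luminescence after 1 h with detection reagent at ambient temperature.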
# * = called active by the depositor; ? = inconclusive; · = no result given; & = joins results of further samples; [ ] = dose if it differs, or a comment.
# Values run as follows: CtBP-E1A inh	PINK1 modulator	TRPV1 potentiator	D2 potentiator	Six1-Eya2 inh	Sfp PPTase inh	D2 ag
O=C(CN1CCC(Cc2ccccc2)CC1)NC(=O)NCc1ccco1
  -15	-1.8%	4	-6	-4	5%	-0.7
Cc1cc(=O)n2c(-c3ccc(Cl)cc3)csc2n1
  4	3.6%	-3	-5	0	3%	0.9
COCCCn1c(SCC(=O)OC2CCCCC2)nnc1-c1cccs1
  -3	-3.8%[38.3 µM]	-20	6	-1	7%	-1.1
CCOc1cc(C(=O)N=c2sccn2C)cc(Br)c1OC
  0	1.5%	8	17	14	9%	2.3
CCCCN(CCCC)C(=S)N/N=C/c1c(C)[nH]n(-c2ccccc2)c1=O
  -19	15%	-6	-52	-19	-5%	-19
COc1ccc(/C=N/n2cnn(Cc3ccccc3Cl)c2=S)cc1
  1	3.3%	-24	-4	0	25µM*	2.4
CC(C)NC(=O)NC(=O)COC(=O)C1(C)CC1(Cl)Cl (stereo unspecified)
  12	0.9%	-8	-9	1	3%	4.6
Cn1c(SCC(=O)c2ccccc2)nnc1-c1ccccn1
  0	0.7%	-3	-4	-15	9%	-0.5
CC(C)(C)NC(=O)CSc1nc(-c2ccccc2)c(-c2ccccc2)[nH]1
  -10	?	-7	-14	-15	-2%	-1.1
CCc1c(C)nc2ncnn2c1N1CCC(C(=O)NCc2cccs2)CC1
  -1	0.4%	-8	1	-4	21%	6.2
COc1cccc(OCc2nnc(SCC(=O)NCc3ccco3)n2CCc2ccccc2)c1
  -6	0.6%	-20	8	-10	50µM*	-4.5
Cc1ccc(C(=O)CSc2nnc(C)s2)cc1
  17	2.9%	-14	-26	0	18%	0.4
O=C(NCc1ccccc1)Nc1cccn(Cc2ccc(F)cc2)c1=O
  1	15%	-17	13	4	-10%	0.3
COc1ccc(C(CC(=O)NCc2ccccc2)Sc2n[nH]c(-c3ccccc3)n2)cc1 (stereo unspecified)
  ·	4.6%	7	1	-6	9%	-7.8
CCOC(=O)C1=NN(c2ccc(F)cc2)C2=NC(C)=C(C(=O)OC)C(c3cccs3)N12 (stereo unspecified)
  -7	-0.3%	·	-13	0	·	-3.5
COc1ccc(Cl)cc1S(=O)(=O)N1CCCC(C(=O)NCCc2ccccc2)C1 (stereo unspecified)
  -1	-0.1%	8	-10	2	12%	-3.5
COc1ccc(CCNC(=O)C2CCCN(S(C)(=O)=O)C2)cc1OC (stereo unspecified)
  -18	-1.8%[38.3 µM]	3	3	-9	-2%	0.9
COC(=O)CSC1=C(C#N)C(c2ccccc2OC)C(C(=O)OC)C(=O)N1 (stereo unspecified)
  -2	1.3%	-17	7	7	-2%	6.4
Cc1c(C(=O)N2CCCCC2)sc(NC(=O)C(C)C)c1C#N
  10	·	-1	-11	1	19%	0.5
CNC(=O)C1C2C=CC3(O2)C1C(=O)N(C1CC1)C3C(=O)NCc1ccc(OC)cc1 (stereo unspecified)
  1	-0.5%	28	-14	6	11%	-1.1
CCC/C=C/c1ccc(CN2C(C(C)C)C(=O)N(Cc3cn(CCC4OCCCO4)nn3)CCS2(=O)=O)cc1 (stereo unspecified)
  ?	0.3%	·	·	-5	·	-1.2
COc1ccc(C=NCC2COc3ccccc3O2)cc1OC (stereo unspecified)
  3	2.4%[38.3 µM]	-2	-14	2	11%	0.4
CCc1ccc(NC(=O)C2CCN(S(=O)(=O)c3c(C)noc3/C=C/N(C)C)CC2)cc1
  4	0.3%	-2	-8	-8	13%	-1.7
COc1ccc(S(=O)(=O)N2CCC(C(=O)N3CCCCC3)CC2)cc1
  4	4.1%	0	-11	4	3%	-4.3
Cc1ccc(NC(=O)c2nc[nH]c2C(=O)N2CCC(C)CC2)cc1
  2	2.7%	2	-25	33	16%	0.9
CCC(C(=O)N1CCN(S(=O)(=O)c2sc(C(=O)O)c(C)c2C(=O)O)CC1)c1ccccc1 (stereo unspecified)
  7	0.0%	-6	0	20	·	-1.9
CCOc1c(OC)cc(C2C(C#N)=C(N)Oc3n[nH]c(-c4ccncc4)c32)cc1OC (stereo unspecified)
  -2	3.2%	3	-25	-6	13%	1.3
O=C(COC(=O)/C=C/c1ccccc1)Nc1ccccc1Br
  9	4.2%	-7	-4	6	4%	-3.4
COC(=O)c1ccc(Sc2ccc(Cl)cc2)c(N)c1
  18	11%[38.3 µM]	-5	12	21	4%	0.8
CC(=O)N1CCN(CC(=O)Nc2sccc2C#N)CC1
  2	-1.4%	0	0	16	0%	-3.1

# Reprinted at random: 4 records from the list
# Values run as follows: CtBP-E1A inh	PINK1 modulator	TRPV1 potentiator	D2 potentiator	Six1-Eya2 inh	Sfp PPTase inh	D2 ag
CCc1ccc(NC(=O)C2CCN(S(=O)(=O)c3c(C)noc3/C=C/N(C)C)CC2)cc1
  4	0.3%	-2	-8	-8	13%	-1.7
COc1ccc(C=NCC2COc3ccccc3O2)cc1OC (stereo unspecified)
  3	2.4%[38.3 µM]	-2	-14	2	11%	0.4
CCOc1c(OC)cc(C2C(C#N)=C(N)Oc3n[nH]c(-c4ccncc4)c32)cc1OC (stereo unspecified)
  -2	3.2%	3	-25	-6	13%	1.3
CCC(C(=O)N1CCN(S(=O)(=O)c2sc(C(=O)O)c(C)c2C(=O)O)CC1)c1ccccc1 (stereo unspecified)
  7	0.0%	-6	0	20	·	-1.9

# The list continues:
# Values run as follows: CtBP-E1A inh	PINK1 modulator	TRPV1 potentiator	D2 potentiator	Six1-Eya2 inh	Sfp PPTase inh	D2 ag
CCOc1ccc(NC(=O)CSc2nc3[nH]ncc3c(=O)n2-c2ccccc2OC)cc1
  2	6.4%	8	-4	-6	22%	-6.3
CC1CN(C(=O)C2CCCC2)C(C)CN1C(=O)C1CCCC1 (stereo unspecified)
  18	0.4%	0	9	2	8%	0.0
CCC12CN3CC(CC)(CN(C1)C31C(=O)N(C)c3ccc(C)cc31)C2=O (stereo unspecified)
  6	1.7%	0	3	-6	18%	-2.0
COc1ccc(C(=O)c2ccc(OC)c(OC)c2)cc1OC
  6	-0.8%	-1	-2	-1	16%	-2.2
COc1cc(/C=C2\SC(=S)N(N3CCOCC3)C2=O)cc(OC)c1OC
  -1	10%	-1	-4	0	-7%	-7.1
O=C(NNC(=S)Nc1ccccc1Cl)C1CC1
  -2	1.1%	1	-9	13	8%	-3.9
COC(=O)C1=C(C(=O)OC)[C@@H]2Nc3ccccc3[C@@]23C[C@@H](C(=O)OC)N(C(=O)c2ccc(Br)cc2)C3=N1
  5	3.6%	17	-1	-12	-13%&11%	-2.0
O=C(CC(=O)c1ccccc1O)c1ccc(F)cc1
  -5	9.1%	6	-29	-6	-16%	-4.9
COc1ccc(S(=O)(=O)N(C)c2ccc(C(=O)Nc3cccnc3)cc2)cc1OC
  2	-1.5%	-9	-31	-4	28%	-3.3
CC(=O)N1c2ccc(S(=O)(=O)CCC(=O)O)cc2CC1C (stereo unspecified)
  -1	-1.6%	·	-15	12	12%	2.7
O=C(Nc1ccc(C(F)(F)F)cc1)C1CCN(c2cnccn2)CC1
  5	1.4%&2.4%	-3	-16	1	6%	3.8
Cc1ccc(/C=N/n2cnc3sc(C)c(C)c3c2=O)o1
  1	0.6%	-7	-5	2	8%	-1.7
CC(C)=NN1C(c2nonc2N)=NOC1(C)C
  -14	0.3%	1	-13	-11	21%	4.4
CC(=O)/C(=N/Nc1ccccc1[N+](=O)[O-])N1CCCc2ccccc21
  -75*	0.9%	0	-5	-74*	-23%	-1.2
CCOc1ccc(N2CC(C(=O)Nc3cccc(C)c3C)CC2=O)cc1 (stereo unspecified)
  1	-0.6%	-5	?	6	-2%	-1.7
CC(C)=CC(=O)N1CCCC(N2CCN(c3ccccc3C)CC2)C1 (stereo unspecified)
  0	0.8%	-17	-21	0	21%	3.2
Cc1cc(OC(=O)c2cccc(Cl)c2)c([N+](=O)[O-])c(=O)[nH]1
  ·	5.1%	9	-2	-13	9%	-2.8
Cc1cc(C)c(S(=O)(=O)N2CCC(C(=O)NCc3ccco3)CC2)c(C)c1
  6	·	-17	3	20	6%	-1.9
CC12CCC(=O)C=C1CCC1C2C(O)CC2(C)C1CCC21OCC1=O (stereo unspecified)
  8	3.7%	·	0	4	·	-0.4
Cn1c(=O)c(C(=O)NNC(=O)c2cccc(Cl)c2)c(O)c2ccccc21
  -1	?	0	-4	-9	12%	-1.0
CCc1nc2c(OCc3cccc(OC)c3)cccn2c1N(C)C(=O)c1ccc(OC)cc1
  -1	0.2%	·	-4	-6	·	-1.7
COc1cccc(/C=N/n2nnnc2N)c1
  -11	-1.2%	4	-8	-12	17%	-5.2
O=C(O)c1ccc(F)c(S(=O)(=O)Nc2ccccc2)c1
  -10	2.0%	-5	-12	3	17%	-1.1
CCNC(=S)N1CCC(C(=O)c2ccc3c(c2)OCCO3)CC1
  4	0.6%	2	-1	-4	17%	-0.8
COc1ccc(CC(=O)Nc2ccc(S(=O)(=O)N3CCCC3)cc2)c(OC)c1
  -6	0.2%	13	-9	-17	·	-3.7
CCCCn1c(CCNC(=O)c2ccco2)nc2ccccc21
  -8	7.8%	-7	-7	-12	10%	-4.1
CC1(c2ccccc2Br)NC(=O)N(CC(=O)Nc2ccc(S(N)(=O)=O)cc2)C1=O (stereo unspecified)
  2	-2.9%	5	4	6	22%	1.0
O=C(N1CCCCC1)C1(c2ccccc2)CCCCC1
  9	1.7%	30	-4	0	1%	4.7
CCn1cc(C(=O)OCc2ccccc2)c(=O)c2ccc(C)nc21
  -14	-1.3%	0	-23	-11	21%	-2.7
O=C(CN1CCN(S(=O)(=O)c2ccc(Br)cc2)CC1)Nc1ccccc1F
  5	1.6%	-2	-11	1	-4%	-1.7
Oc1nc(-c2ccc(Cl)cc2)n2ccncc12
  ·	0.5%	2	-6	-5	8%	?
O=[N+]([O-])c1cc2c(cc1C=Nc1ccccc1)OCO2
  -10	2.1%	-1	?	-14	6%	9.7
Cc1ccc(NC(=O)NCCCN2CCCC2=O)cc1
  9	4.6%[38.3 µM]	-1	4	8	12%	-0.6
COC(=O)[C@]1(C)CCC[C@@]2(C)C3CC[C@@]4(C)C[C@]3(CCC21)CC(=O)N4Cc1ccc(OC)cc1 (stereo partly specified)
  -5	17%	-10	-9	-10	·	-3.8
CC(=O)Nc1ccc(S(=O)(=O)N2CCSCC2)cc1
  9	-5.1%[38.3 µM]	?	-3	2	12%	0.8
